Compound activity (PubChem BioAssay)
D2 potentiator: potentiates the human D2 dopamine receptor allosterically. P14416. potentiation, % (no concentration beside the values). 0.23% of 360,000 active. DiscoveRx D2 beta-arrestin cells, luminescence, 90 min; 100% = 57 uM dopamine signal; active = potentiation of 50% or more; inconclusive = 30% to 50%; inactive = 30% or less;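 note: compound concentration not given in the record; tested on top of an EC20 dose of dopamine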
Target sequence (P14416 whole entry, looked up): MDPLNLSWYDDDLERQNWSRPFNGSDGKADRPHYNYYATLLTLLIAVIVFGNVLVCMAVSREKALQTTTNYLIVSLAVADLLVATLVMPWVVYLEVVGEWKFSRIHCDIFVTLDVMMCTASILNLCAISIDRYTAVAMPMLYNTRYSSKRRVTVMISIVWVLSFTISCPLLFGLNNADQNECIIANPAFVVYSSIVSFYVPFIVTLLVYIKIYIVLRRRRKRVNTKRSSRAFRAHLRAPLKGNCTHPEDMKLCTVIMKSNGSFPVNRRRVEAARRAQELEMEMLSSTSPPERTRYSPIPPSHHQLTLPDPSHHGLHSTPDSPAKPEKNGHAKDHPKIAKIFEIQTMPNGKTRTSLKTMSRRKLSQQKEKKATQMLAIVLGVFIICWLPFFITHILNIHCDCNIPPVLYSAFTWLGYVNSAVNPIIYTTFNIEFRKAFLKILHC
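PathHunter beta-arrestin assay in DiscoveRx D2 cells. Compounds were added with an EC20 of dopamine (50 nM final) for 90 min at 37 deg C. Luminescence was read 1 h after detection reagent, with 57 uM dopamine as the EC100 control.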
PINK1 modulator: modulators of PINK1 expression; AID 624263; 0.2% of 410,000 active; Potency, µM (top dose mostly 76.6 µM), for the others: at the top dose activation (PINK1 increase), hits mostly activators; PINK1 immunofluorescence, high-content cytometry, 24 h; active = well fitted activation curve with a large enough effect; inconclusive = small, poorly fitted or top-dose-only effect; inactive = flat fitted curve, though single readings scatter; cell line not stated here;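 note: potency is the fitted concentration of half-maximal effect; % of control where 0% means no effect; nearly all actives have a fitted effect of over 65% in size; a mitochondrial uncoupler was the plate control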
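PINK1 protein level read as immunofluorescence by microplate cytometer in a fixed, stained stable cell line after 24 h exposure to five compound concentrations, with CCCP as control.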
Six1-Eya2 blk: inhibitors of human Six1/Eya2 interaction. Q15475+O00167. AlphaScreen GST-Six1/His-Eya2 binding, biochemical; stronger effect = lower value; control for the full effect not named in the record. activity change, % (concentration not given with the values). 0.56% of 360,000 active; in the data active = activity change below about -65%; inconclusive = about -30% to -65%; inactive = above about -30%; note: % is set by controls: 0 for no effect and ±100 for the full control effect
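Homogeneous AlphaScreen proximity assay pairing GST-Six1 with His-tagged Eya2 (added as 5X mix: 250 nM and 500 nM) in 50 mM Tris pH 8.0, 300 mM NaCl, 1 mM TCEP. Glutathione donor and nickel acceptor beads; 1 h, 37 °C, dark.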
CtBP-E1A blk: inhibitors of CtBP/E1A interaction. AID 651724. 0.49% of 340,000 active. activity change, % (concentration not given with the values). AlphaScreen GST-E1A/His-CtBP binding, 1536-well; stronger effect = lower value; control for the full effect not named in the record; in the data active means activity change below about -65%; inconclusive means about -30% to -65%; inactive means above about -30%; note: % is set by controls: 0 for no effect and ±100 for the full control effect
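AlphaScreen with 125 nM GST-E1A and 125 nM His-CtBP (5X stocks) in Tris pH 8.0, 300 mM NaCl, BSA, Tween 20, TCEP. Compounds preincubated 2 h at 37 deg C, then glutathione donor/nickel acceptor beads added for 1 h at 37 deg C in dark.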
TRPV1 potentiator: human TRPV1 potentiation. TRPV1-expressing cells, Fluo-8 calcium influx, capsaicin EC20 potentiation; host cell line not named in the record; control for the full effect not named in the record. potentiation, % at 8.33 µM. 0.02% of 320,000 active. AID 540277; active means potentiation above 80%; inconclusive means 30% to 80%; inactive means below 30%; note: 0% is about no effect
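Fluo-8 calcium influx in TRPV1-expressing cells, kinetic read (ex 480/em 520 nm). Compound added and read 3 min for agonist activity, followed by capsaicin at EC20 final and 2 min further read for enhancement.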
Sfp inh: blocks B. subtilis Sfp PPTase activity; Q9F4F7; Potency, µM, inactives show max response, negative = inhibition, most hits filed as inhibitors; Biochemical Sfp PPTase activity, qHTS; 3.5% of 310,000 active; AID 1490; active = well fitted inhibition curve with a large enough effect; inconclusive = small, poorly fitted or top-dose-only effect, or another doubt; inactive = no such curve, though single readings can be large or run the other way;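 note: the enzyme is Sfp with the accession as filed and its product quenches rhodamine fluorescence; potency is the fitted concentration of half-maximal effect; 0% = enzyme reaction without inhibitor and -100% = no enzyme wells; top concentration of the series not given in the record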
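Step 1, compound plus 15 nM Sfp-PPTase, 15 min, room temperature. Step 2, add rhodamine-CoA (5 uM) and BHQ-2-YbbR (12.5 uM). Step 3, read 525/598 nm fluorescence at 0 and 30 min.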
D2 ag: agonists of human D2 dopamine receptor (beta-arrestin) | P14416 | DiscoveRx PathHunter D2 beta-arrestin, luminescence, 90 min; 100% = 57 uM dopamine signal | activation, % (concentration not given with the values) | 0.084% of 360,000 active | AID 624465; in the data active = activation above about 40%; inconclusive = about 15% to 40%; inactive = below about 15%; note: compound concentration not given in the record; the text of the record calls up to 30% inactive
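DiscoveRx PathHunter D2 beta-arrestin cells (2,100/well) attached overnight, then compound-stimulated 90 min at 37 C in HBSS/10 mM HEPES/0.1% Tween-20 buffer; beta-galactosidase complementation read by luminescence after 1 h at ambient temperature. Dopamine 57 uM final (EC100) as control.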
* marks the source's active call; other numbers are inactive results; ? = inconclusive; . = not tested or not shown; & = joins results of further samples; [ ] = dose if it differs, or a comment.

Molecule	D2 potentiator	PINK1 modulator	Six1-Eya2 blk	CtBP-E1A blk	TRPV1 potentiator	Sfp inh	D2 ag
CCCOc1ccccc1-c1nc2c([nH]1)c(=O)[nH]c(=O)n2C	-5	12%	-29	-23	4	3%	-2.6
O=C(O)CC(c1ccc(OC2CCCC2)cc1)N1C(=O)c2ccccc2C1=O (stereo not given)	-4	0.9%	-14	1	-2	5%	-4.6
O=C(CN1C(=O)/C(=C2/SC(=S)N(CCS(=O)(=O)O)C2=O)c2ccccc21)Nc1cccc(C(F)(F)F)c1	10	-1.6%	?	-9	.	.	4.8
COc1ccc(C(=O)NC(=S)NCc2cccnc2)cc1Cl	10	0.0%	-7	-7	2	3%	-1.8
COc1ccc(C)cc1-n1nnnc1SCC(=O)Nc1cccnc1Cl	-4	-1.8%	7	1	14	-2%	1.3
CSc1ccccc1NC(=O)COc1ccc2c(c1)OCO2	-2	1.6%	-6	-17	.	.	-3.1
N#CCCN(C(=O)COC(=O)CNC(=O)c1cccs1)c1ccc(F)cc1	-9	2.4%	9	-1	4	.	-2.5
Cc1ccc(S(=O)(=O)c2nc(NC3CCS(=O)(=O)C3)sc2Cl)cc1 (stereo not given)	-6	3.6%	3	4	-30	13%	-0.9
O=C(Nc1ccccc1C(=O)O)c1cc(S(=O)(=O)Nc2cccc(F)c2)ccc1Cl	8	1.6%	3	-7	6	12%	-2.5
CCCCN1C(=O)C(NC(C)=O)c2ccccc21 (stereo not given)	-14	-0.3%	12	3	?	?	-2.3
O=C(/C=C/c1ccco1)N(Cc1cccc(Br)c1)C1CCS(=O)(=O)C1 (stereo not given)	-9	-1.2%	1	2	9	?	-0.9
CCOP(=O)(O)c1ccccc1OCCOc1ccccc1P(=O)(O)OCC	-3	-1.3%[38.3 µM]	23	44	-2	-7%	-1.1
CCOC(=O)C1CCCN(C(=O)c2cccc(Cl)c2)CC1 (stereo not given)	-3	-0.3%	1	7	.	.	-5.8
O=C(Nc1nnc(C2CC2)s1)c1ccc(Cl)c(S(=O)(=O)N2CCc3ccccc3C2)c1	-4	5.5%	-7	1	4	-8%	-0.1
CC(C)N(C(=O)CSc1nc2ccccc2n1-c1ccccc1)C(C)C	-8	9.5%[38.3 µM]	-3	2	-20	79µM*	-4.3
COC(=O)CN1C(=O)C(C)(C)Oc2ccc(C(=O)NC3CCCC3)cc21	-2	3.1%	6	20	-17	2%	7.8
CC(C)CCn1c(SCCN2CCOCC2)nc2c1c(=O)[nH]c(=O)n2C	-2	-2.7%	3	0	0	10%	-2.1
Cc1ccc(OCCn2cnc3c2c(=O)n(C)c(=O)n3C)cc1	-5	1.9%	3	-4	12	15%	-1.2
CCn1nc(C(=O)N2CCc3ccccc32)c2ccccc2c1=O	-21	-1.2%	1	0	-3	.	-5.5
CCN1CCN(C(=S)c2ccc(SC)cc2)CC1	-13	-1.4%	-16	0	-6	28µM*	-4.3
COC(=O)[C@H](Cc1ccccc1)NC(=O)NC(C)CCc1ccccc1 (stereo not given in full)	-6	-0.8%	2	4	7	15%	-3.7
Cc1ccc(NC(=O)c2cccs2)cc1NC(=O)c1ccco1	-10	-1.7%	-10	-14	-8	8%	-2.3
CCCC1=C(C(=O)OCC)C(c2ccccc2OC)NC(=O)N1 (stereo not given)	5	0.6%	5	-2	2	25%	-1.2
O=C(c1ccccn1)N1CCCC(N2CCN(Cc3ccc4c(c3)OCO4)CC2)C1 (stereo not given)	-19	-1.6%	3	6	3	12%	-8.0
Brc1ccc(CN2CCN(Cc3c[nH]c4ccccc34)CC2)cc1	-16	-1.8%	-16	-14	6	56µM*	3.0

2 entries from above, with values under each structure.
Values run as follows: D2 potentiator, PINK1 modulator, Six1-Eya2 blk, CtBP-E1A blk, TRPV1 potentiator, Sfp inh, D2 ag
> COc1ccc(C)cc1-n1nnnc1SCC(=O)Nc1cccnc1Cl
 : -4, -1.8%, 7, 1, 14, -2%, 1.3
> CSc1ccccc1NC(=O)COc1ccc2c(c1)OCO2
 : -2, 1.6%, -6, -17, ., ., -3.1

Next part
Molecule	D2 potentiator	PINK1 modulator	Six1-Eya2 blk	CtBP-E1A blk	TRPV1 potentiator	Sfp inh	D2 ag
COc1cccc(OC)c1C(=O)Nc1c(C)n(C)n(-c2ccccc2)c1=O	6	.	6	9	5	18%	2.0
O=C(CN1CCN(c2ccccc2F)CC1)c1ccc2c(c1)OCO2	-28	-0.3%	3	-1	5	5%	2.9
CCCc1cc(=O)oc2cc(OC(C)C(=O)NCC3CCC(C(=O)O)CC3)ccc12 (stereo not given)	-17	2.0%	17	24	0	13%	-2.4
Cc1ccc(OCC(=O)NC2CC(C)(C)NC(C)(C)C2)cc1C	-6	-2.6%	4	2	-8	16%	2.5
Cc1cc(C)n2nc(C(=O)Nc3cccc(S(=O)(=O)N(C)c4ccccc4)c3)nc2n1	-3	1.5%	-9	1	-20	1%	0.1
C[C@@H](c1ccccc1)N1C[C@H](COCc2ccccc2)Oc2cc(N3CCC[C@H]3C(N)=O)ccc2S1(=O)=O	.	1.2%	2	-8	.	.	.
CCNC(=O)CSc1nc2ccccc2c(=O)n1-c1cccc(OC)c1	-1	-0.8%	-3	3	-5	6%	-3.1
CC(C)(C)c1ccc(S(=O)(=O)NCC(=O)N2CCN(C(=O)c3ccco3)CC2)cc1	2	-2.5%[38.3 µM]	0	1	1	2%	3.2
Cc1ccc(NS(=O)(=O)c2ccc3c(c2)NC(=O)C(C)C(=O)N3)cc1C (stereo not given)	4	0.1%	-4	3	-1	-1%	3.3
O=C(CN1CCN(c2ccc(Cl)cc2)CC1)Nc1ccc(F)c(F)c1	-18	-1.7%&-0.8%	2	-17	?	0%	-2.4
OC(CN1C2=NCCCN2c2ccccc21)c1ccc2c(c1)OCO2 (stereo not given)	-3	-0.5%	3	-2	13	9%	-3.2
CCOC(=O)c1[nH]c(C)c(C(=O)OCC(=O)NC(=O)NC(C)(C)C)c1C	-5	-1.7%	0	8	0	10%	-2.0
CC(O)c1nc(C(C)O)n(CC(=O)c2ccccc2)n1 (stereo not given)	-5	0.6%	11	2	1	.	-2.8
Cc1ccc(NC(=O)CN(C)C(=O)c2ccccc2Cc2ccccc2)cc1	-3	-1.2%	0	5	2	.	1.2
CCOc1ccc(NC(=O)c2c(N)n(C)c(=O)[nH]c2=O)cc1	-4	4.4%	3	3	.	.	-0.6
Cc1cc(C)nc(SCc2nc3ncccn3c2Br)n1	3	0.5%	0	3	-3	11%	-0.6
COc1ccc(C)cc1S(=O)(=O)N(C)CC(=O)NC1CC1	-8	7.0%[38.3 µM]	-1	-4	-5	15%	-1.1
Cc1ccc(NC(=O)CCC(=O)NNC(=O)c2cccs2)c(C)c1	-1	4.8%[38.3 µM]	2	10	2	8%	-3.9
CCCCOc1ccc(CN=C(N)N)cc1Cl	-22	2.9%	-3	.	?	6%	-4.7
COc1ccc(C(=O)O/N=C(/c2cccs2)C(C)(C)C)cc1	-15	2.3%	10	.	-11	-4%	-3.5
CCOc1ccc(-n2nc3c(=S)[nH]nc(C)c3c2C)cc1	0	4.2%	-4	-1	-1	25%	2.0
Cc1cc(N2C(=O)C(O)=C(C(=O)c3ccco3)C2c2cccc(Cl)c2)no1 (stereo not given)	-4	0.7%	4	.	-14	-13%	-1.1
CCOCCCNC(=O)C(NC(=O)Cc1cccs1)c1ccc(C)cc1 (stereo not given)	-15	1.2%	-3	-21	10	23%	-3.4
O=S(=O)(c1ccc2ccccc2c1)N1CCOCC1	-5	0.4%&4.1%	2	3	-1	16%	1.0
Cc1cccc(NC(=O)CCCN=C2NS(=O)(=O)c3ccccc32)c1C	-7	-0.4%	4	-24	-10	.	-1.8

Continuation:
Molecule	D2 potentiator	PINK1 modulator	Six1-Eya2 blk	CtBP-E1A blk	TRPV1 potentiator	Sfp inh	D2 ag
Cc1cc(-c2csc(NC(=O)C3=COCCO3)n2)c(C)n1C	2	0.7%	-11	3	9	.	1.9
COc1ccc(NC(=O)c2nnn(CC(=O)Nc3ccc4c(c3)OCO4)c2N)c(OC)c1	-17	2.4%	1	-20	5	-19%	13
O=C(NNC(=O)[C@@H]1CCCC[C@@H]1C(=O)O)Nc1ccccc1	4	1.0%	-2	0	-2	21%	3.0
C(COC1CC2CC1C1C2CC2OC21)OC1CC2CC1C1C2CC2OC21 (stereo not given)	-12	-3.8%	1	-24	.	.	-1.0
COc1cccc(S(=O)(=O)c2nc(C)c3c(n2)CCC3)c1	-8	0.6%	5	-2	-5	-3%	-3.4
CN(C(=O)CSc1nnc(-c2ccc(F)cc2)c2ccccc12)C1CCS(=O)(=O)C1 (stereo not given)	-8	1.9%	-2	-1	8	-14%	-4.0
Cc1ccc(NCCCn2ccc(NC(=O)OCc3ccccc3)nc2=O)cc1C	.	0.1%	?	-20	.	.	-0.3
CSc1nc(Sc2cccc(Cl)c2)c2ccccc2n1	0	0.3%	15	8	8	?	-1.4
Cc1cc(NC(=O)CCCn2cc([N+](=O)[O-])cn2)n(Cc2ccc(F)cc2)n1	-4	0.6%	38	-3	0	13%	-2.6
CC1(C)Cc2ccccc2C(N/N=C/c2ccc(Cl)cc2)=N1	-36	?	-8	-11	1	-14%	-1.8
CN(c1ccc(OCC(=O)NC2CCC(O)CC2)cc1)S(=O)(=O)c1ccc(Cl)cc1 (stereo not given)	4	1.6%	-1	0	.	.	5.1
Cc1ccc(Cl)c(NC(=O)CN2CCNC(=O)C2)c1Cl	-7	0.6%	10	-2	-1	12%	-4.2
O=C(Cn1ccc(NC(=O)OCc2ccccc2)nc1=O)NCCc1c[nH]c2ccccc12	14	0.6%	0	-2	20	.	0.6
CN(C)Cc1ccc(CNC(=O)c2ccc(Cl)c(S(=O)(=O)NC3CC3)c2)cc1	-21	0.4%	7	-5	7	.	-7.1
CCCCNC(=S)Nc1ccc(Cl)cc1	-21	3.4%	0	1	-20	21%	-3.0
Cc1ccc(N(C)C(=O)N2CCN(S(=O)(=O)c3ccc(C)c(C)c3)CC2)cc1	-8	2.0%[38.3 µM]	-2	-2	-6	6%	-2.9
CCOC(=O)c1sc(N(Cc2ccccc2)C(=O)CCl)nc1C	-2	4.0%	3	5	-1	-31%	1.0
COc1cc(OC)c(/C=N/N2CCN(c3ccccc3OC)CC2)c(OC)c1	-4	9.6%	-7	0	4	6%	-5.3
CC(Sc1cccc[n+]1[O-])c1ccccc1 (stereo not given)	4	0.6%	5	-4	-10	-11%	0.5
